Marburg entry inh – inhibitors of Marburg virus binding or cell entry; Potency, µM (top dose mostly 37.8 µM), without a hit: top-dose activity change, negative = inhibition, most hits filed as inhibitors; Marburg virus pseudotyped entry inhibition, cell reporter; control for the full effect not named in the record; about a third of the inactives were read at about 46 µM; 1.8% of 300,000 active; active = well fitted inhibition curve with a large enough effect; inconclusive = small, poorly fitted or top-dose-only effect, or effect the other way; inactive = flat fitted curve, though single readings scatter; tested in HEK293 cells; about a fifth of its hits are not listed in these tables; also: % is scaled to controls: 0 for no effect and ±100 for the full control effect; luciferase read-out
LASV entry inh – Lassa virus entry inhibition; Potency, µM (titrated, usually from 37.9 µM), inactives show at the top dose activity change, negative = inhibition, usual class: inhibitors; 1.2% of 300,000 active; Lassa virus pseudotype entry inhibition, cell reporter; control for the full effect not named in the record; active means well fitted inhibition curve with a large enough effect; inconclusive means small, poorly fitted or top-dose-only effect, or effect the other way; inactive means flat fitted curve, though single readings scatter; tested in HEK293 cells; also: % is scaled to controls: 0 for no effect and ±100 for the full control effect; nearly all actives have a fitted effect of over 50% in size; luciferase read-out
Cruzain inh Det – inhibitors of Trypanosoma cruzi cruzain with detergent | purified cruzain, Z-FR-AMC fluorescence, 0.01% Triton | Potency, µM, inactives show max response, negative = inhibition, hits mostly inhibitors | 0.43% of 200,000 active | AID 1478; active = well fitted curve in the direction sought with a large enough effect; inconclusive = small, poorly fitted or top-dose-only effect, or another doubt; inactive = no such curve, though single readings can be large; an effect the other way counts as inactive or inconclusive;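 also: plate controls were neutral wells for no effect and buffer without enzyme for full effect; nearly all actives have a fitted effect of over 40% in size; top concentration of the series not given in the record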
Target sequence (P25779 123-467 limits assumed): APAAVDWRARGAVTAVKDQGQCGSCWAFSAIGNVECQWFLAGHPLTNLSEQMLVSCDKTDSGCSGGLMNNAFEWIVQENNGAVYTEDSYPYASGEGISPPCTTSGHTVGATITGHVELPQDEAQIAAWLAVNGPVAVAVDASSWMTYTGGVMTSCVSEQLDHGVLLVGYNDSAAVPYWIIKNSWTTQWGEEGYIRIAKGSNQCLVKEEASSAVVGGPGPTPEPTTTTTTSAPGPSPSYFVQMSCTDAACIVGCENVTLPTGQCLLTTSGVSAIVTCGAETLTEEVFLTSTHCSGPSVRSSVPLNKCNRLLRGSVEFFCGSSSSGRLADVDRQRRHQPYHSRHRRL
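Steps: dispense cruzain (1.5 nM final) in acetate buffer pH 5.5 with DTT and 0.01% Triton X-100; pin-transfer compounds; incubate 15 min RT; add Z-FR-AMC (2 uM final); read fluorescence every 30 s, using the 60 s intensity change.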
StopGo reporter – lowers the luciferase signal of an FMDV 2A StopGo reporter; 1.2% of 410,000 active; Potency, µM (series often up to 57.9 µM), for the others: at the highest dose signal change, negative = less light; human cells with a luciferase reporter of 2A StopGo recoding; control for the full effect not named in the record; AID 1159524; active = well fitted falling curve with a large enough effect; inconclusive = small, poorly fitted or top-dose-only effect; inactive = no such curve, though single readings can be large or run the other way; tested in HEK293T cells; also: % is scaled to controls: 0 for no effect and ±100 for the full control effect; nearly all actives have a fitted effect of over 45% in size; luciferase light after 4 h
NS1 inh – influenza NS1 inhibition; S. cerevisiae slowed by influenza A NS1, growth recovery by OD600; Potency, µM (highest dose often 46.1 µM), for inactives: top-dose activity, positive = more growth; 0.4% of 270,000 active; AID 2326; also: actives are rising curves; nearly all actives have a fitted effect of over 50% in size
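S. cerevisiae expressing influenza A NS1, grown in glucose, washed, then diluted 1:100 into pH 6.0 -URA galactose medium with 23 nl compound. Growth recovery read as OD600; NS1-free strain serves as control.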
Cruzain inh noDet – cruzain (T. cruzi) inhibition without detergent | purified cruzain, Z-FR-AMC fluorescence, no detergent | 2.3% of 200,000 active | P25779 | Potency, µM, without a hit: max response, negative = inhibition, hits mostly inhibitors; active = well fitted curve in the direction sought with a large enough effect; inconclusive = small, poorly fitted or top-dose-only effect, or another doubt; inactive = no such curve, though single readings can be large; an effect the other way counts as inactive or inconclusive;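 also: plate controls were enzyme without inhibitor for no effect and buffer without enzyme for full effect; nearly all actives have a fitted effect of over 40% in size; top concentration of the series not given in the record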
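Purified cruzain at 1.5 nM, pre-incubated 15 min with compound at room temperature in 100 mM sodium acetate pH 5.5, 5 mM DTT, 0.00005% Triton X-100. Reaction started with 2 uM Z-FR-AMC; AMC fluorescence increase over 60 s gives rate.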
SARS PLpro yeast – blocks SARS-CoV papain-like protease in a yeast assay; S. cerevisiae expressing SARS-CoV PLpro, growth rescue; control for the full effect not named in the record; Potency, µM (titrated, usually from 32.9 µM), for the others: at the top dose activity, positive = growth rescue; 0.19% of 330,000 active; AID 485353; also: 0% is about no effect; nearly all actives have a fitted effect of over 55% in size; growth read by luminescence after 48 h
RE007 growth inh – less growth of the S. pombe RE007 Vpr strain | S. pombe RE007 Vpr strain, BacTiter-Glo ATP luminescence, 24 h; control for the full effect not named in the record | Potency, µM (top dose mostly 92.2 µM), inactives show top-dose activity change, negative = less growth | 0.21% of 360,000 active | AID 651644; active = well fitted falling curve with a large enough effect; inconclusive = small, poorly fitted or top-dose-only effect; inactive = no such curve, though single readings can be large or run the other way;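 also: % is scaled to controls: 0 for no effect and ±100 for the full control effect; nearly all actives have a fitted effect of over 50% in size; the assay follows cell death caused by Vpr and the record does not say whether a fall means rescue or toxicity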
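Fission yeast strain RE007, carrying one chromosomally integrated HIV-1 vpr copy, was seeded at OD 0.01 in PMG+AL medium with 23 nL pinned compound. After 24 h at 30 °C and 99% humidity, viability was read by BacTiter-Glo luminescence.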
* marks the source's active call; other numbers are inactive results; ? = inconclusive; nt = not tested or not shown; & = joins results of further samples; [ ] = remark or other dose. Unless noted, calls follow the shape of the dose curve; as a rule, active means well fitted rising curve with a large enough effect; inconclusive means small, poorly fitted or top-dose-only effect; inactive means no such curve, though single readings can be large or run the other way. Potency is read from the fitted curve at half-maximal effect.

SMILES	Marburg entry inh	LASV entry inh	Cruzain inh Det	StopGo reporter	NS1 inh	Cruzain inh noDet	SARS PLpro yeast	RE007 growth inh
CC(C)CC(NC(=O)OC(C)(C)C)c1cn([C@@H](Cc2cc3ccccc3[nH]2)C(=O)N2CCN(C(=O)OC(C)(C)C)CC2)nn1 (stereo not given in full)	nt	nt	nt	-26%	2%	nt	1%	-14%
O=C(CCN1C(=O)c2ccccc2C1=O)NC(=S)Nc1ccccc1	1%	4%	-2.3%	-3%	12%	2%	-2%	1%
CCCC1CCC(c2ccc(C(N)=O)cc2)CC1 (stereo not given)	-5%	15%	3.5%	-2%	-6%	?	1%	31%
COc1ccc2c(c1)c1nc3ccccc3nc1n2Cc1ccc(OC)c(OC)c1	30%	0%	-2.5%	0%	11%	29%	1%	18%
CCN(CC)C(=O)CCc1nnc(CCc2c[nH]c3ccccc23)o1	nt	nt	nt	0%	5%	nt	0%	-8%
Cn1c(=O)n(CCCc2ccccc2)c(=O)c2c1nc1n2CCN1c1ccccc1	nt	23%[46.1 µM]	-4.4%	?	nt	1%	nt	nt
CCc1ccc(OCC(=O)NC(=S)Nc2ccc(C(C)=O)cc2)c(Br)c1	26%	23%	5.6%	nt	?	-20%	5%	-3%
O=C(CNC(=O)c1ccco1)Nc1cccc(Cl)c1	nt	nt	nt	22%	-2%	nt	-1%	6%
COC(=O)N1CC=CC1(C)C(=O)NCc1cc(F)cc(C(F)(F)F)c1 (stereo not given)	-1%	-1%	-0.1%&-1.0%	-12%	-7%	-5%&-8%	2%	-6%
Cc1ccc(SCc2cc(=O)[nH]c(/N=C(\N)Nc3ccc(C)c(C)c3)n2)cc1	-20%	-4%	4.3%	-1%	-1%	2%	5%	-5%
CCCCN(C(=O)/C=C/c1ccc(OC)cc1)C1CCS(=O)(=O)C1 (stereo not given)	9%	0%	nt	-15%	nt	nt	-2%	3%
CCOc1ccc(S(=O)(=O)n2cc(F)c(=O)[nH]c2=O)cc1[N+](=O)[O-]	nt	nt	nt	-11%	-32%	nt	-52%	?
Cc1ccc(SCCC(=O)NNC(=O)c2ccccc2F)cc1	-1%[46.1 µM]	25%[46.1 µM]	nt	24%	nt	nt	-1%	-8%
CCC(C)(C)NC(=O)C1CCN(S(=O)(=O)c2cccs2)CC1	2%[46.1 µM]	16%	nt	-10%	nt	nt	-1%	13%
CCOc1ccc(-n2c(COc3ccccc3)nnc2SCC(N)=O)cc1	18%	-6%	-3.4%	-9%	-5%	24%	-10%	2%
CC(=O)N1CCCc2cc(S(=O)(=O)N3CCC(C)CC3)ccc21	?	0%	0.5%	9%	11%	11%	9%	16%
O=C(CNC(=O)c1ccccc1)NCC(=O)OCC(=O)c1ccccc1	0%[46.1 µM]	17%	nt	-1%	0%	nt	-3%	3%
Clc1ccc(NC2=NCCC2)cc1Cl	16%	-2%	2.2%	-17%	-7%	-5%	-12%	27%
c1ccc(C2[C@H]3CN(CC4CCCCC4)[C@H](c4ccccc4)C34CC2(c2cccnc2)C4)cc1 (stereo not given in full)	nt	nt	-5.8%	-5%	-2%	0%	-2%	-8%
c1ccc(CCc2cn(C[C@H]3CC[C@@H]([C@@H]4CC[C@H](Cn5cc(CCc6ccccc6)nn5)O4)O3)nn2)cc1	nt	nt	nt	-20%	-18%	nt	-2%	0%
CCOC(=O)N1CCN(C(=O)CNC(=O)c2ccc(Br)cc2)CC1	11%	-5%	nt	-15%	12%	nt	7%	14%
CCOC(=O)C1CCCN(CC(=O)Nc2cccc(C(C)=O)c2)C1 (stereo not given)	nt	nt	nt	-9%	3%	nt	0%	-6%
CC(=O)NC(Cc1ccccc1)C(C)=O (stereo not given)	10%	9%	nt	-5%	nt	nt	4%	1%
CCO[C@@H]1OC(C(=O)N2CCCCCCC2)=C[C@H](c2ccc(C(F)(F)F)cc2)[C@H]1CCCO	nt	nt	nt	-13%	8%	nt	0%	-6%
CC(=O)c1c(C(C)=O)c(C)n(-c2ccc(N)cc2)c1C	20%	2%	3.7%	-21%	5%	-9%	-1%	-1%
O=C1Nc2ccccc2/C1=N/N=C/c1cccc(O)c1	-4%[46.1 µM]	?	nt	6%	-38%	nt	-2%	16%
O=C(OCC(=O)N1CCN(C(=O)c2ccco2)CC1)C1=COCCO1	5%	11%	2.1%	21%	-3%	-13%	-2%	13%
CCOc1ccc(S(=O)(=O)NCc2nc3cccnc3n2Cc2ccccc2OC)cc1	nt	-35%[46.1 µM]	-1.2%	66%[activator]	nt	2%	nt	nt
CC1Sc2ccc(S(=O)(=O)N3CCC(C(N)=O)CC3)cc2NC1=O (stereo not given)	12%[46.1 µM]	28%[46.1 µM]	nt	8%	-9%	nt	-16%	4%
CCOC(=O)c1c(SCc2ccccc2)n[nH]c1N	nt	nt	nt	43%[activator]	11%	nt	1%	-6%
O=c1oc2ccccc2n1Cc1cccc(C(F)(F)F)c1	?	12%	nt	-2%	nt	nt	nt	-17%
O=C(Nc1ccccc1Cl)C1C(c2ccccc2)C1(Cl)Cl (stereo not given)	nt	nt	nt	-21%	-78%	nt	-31%	-18%
CC(C)(C)c1ccc(S(=O)(=O)N2CCC(N3CCCCC3)CC2)cc1	?	-11%	nt	-29%	9%	nt	-3%	-12%
Cc1ccc(NC(=O)C2CC(=O)N(c3ccccc3Cl)C2)cc1S(=O)(=O)N1CCOCC1 (stereo not given)	-47%	-14%	nt	?	nt	nt	nt	1%
S=C(c1ccccc1)N1CCSCC1	24%[46.1 µM]	22%[46.1 µM]	nt	-9%	8%	nt	0%	5%
NC(=O)CSc1nnc(-c2ccccn2)n1Cc1ccco1	5%	11%	nt	-7%	-2%	nt	-1%	-3%
CSCCC(NC(=O)c1ccc(Cl)cc1Cl)C(=O)NCc1ccccn1 (stereo not given)	?	5%	nt	6%	17%	nt	-1%	1%
O=S(=O)(NCc1ccccc1)NCc1ccccc1	?	6%[46.1 µM]	nt	21%	nt	nt	-3%	9%
c1ccc(CNC2CC3CCC2C3)cc1 (stereo not given)	-20%[46.1 µM]	9%[46.1 µM]	nt	18%	nt	nt	nt	-3%
CCOC(=O)CN1C(=O)N(c2ccccc2OC)S(=O)(=O)c2ccccc21	nt	nt	nt	-8%	-3%	nt	-1%	11%
Cc1ccc(N)cc1CN1CCCC1=O	?	0%	-0.9%	-6%	6%	-1%	0%	-15%
O=C(c1cccnc1)N1CCN(S(=O)(=O)c2ccc3ccccc3c2)CC1	0%	?	4.1%	?	1%	13%	0%	0%
CC(=O)N1CCN(c2ccc(NC(=O)c3ccccc3Cl)cc2)CC1	24%[46.1 µM]	19%[46.1 µM]	nt	10%	6%	nt	-4%	-8%
COc1ccc(Nc2nc3ccccc3nc2NS(=O)(=O)c2cccs2)cc1	-13%	-2%	1.7%	-21%	8%	-14%	-2%	14%
CC(C)c1ccccc1OCCNC(=S)NC(=O)c1cccnc1	-24%[46.1 µM]	-24%	nt	-16%	4%	nt	11%	1%
CCOc1cc(/C=C(\C#N)C(=O)NCC2CCCO2)ccc1O (stereo not given)	?	2%[46.1 µM]	-3.7%&-3.3%	-4%&22%	-12%	-3%&-2%	-5%	5%
CC(C)(C)OC(=O)N1CCC[C@@H]1C(=O)N1CCC(C(=O)O)CC1	5%	6%	5.0%	10%	8%	2%	7%	7%
O=C(NCCN1CCOCC1)c1noc2c1CCc1ccccc1-2	-12%	14%	-30%	45%[activator]	2%	?	-1%	-12%
NC(=O)c1ccc(NC(=O)c2ccc3c(c2)OCO3)cc1	-10%	-2%	-3.6%	nt	3%	-9%	8%	1%
C=CCn1c(-c2cccc(S(=O)(=O)N3CCOCC3)c2)n[nH]c1=S	0%[46.1 µM]	-5%	nt	-15%	nt	nt	1%	-11%

Additional results:
SMILES	Marburg entry inh	LASV entry inh	Cruzain inh Det	StopGo reporter	NS1 inh	Cruzain inh noDet	SARS PLpro yeast	RE007 growth inh
CC(C)(C)CN1C(=O)C(=O)NC[C@H]1Cc1cccc2ccccc12	nt	nt	nt	-6%	-7%	nt	0%	-7%
Cn1cc([N+](=O)[O-])c(C(=O)Nc2ccc(-c3nc4ccccc4o3)cc2)n1	nt	nt	nt	-43%	-36%	nt	0%	6%
CCN(CC)CCNC(=O)Cn1cnc2sc(C)c(S(=O)(=O)N3CCN(c4ccccc4OC)CC3)c2c1=O	2%&17%[46.1 µM]	8%	-0.3%	7%&0%	-4%	9%	1%	-16%
COc1cc2[nH]c(=S)n(NC(=O)CC(C)C)c(=O)c2cc1OC	1%	?	-5.8%	0%	4%	8%	1%	5%
O=C1C2C3CCC(C3)C2C(=O)N1CNc1ccccc1 (stereo not given)	25%	4%	-2.4%	-9%	-6%	-5%	-5%	18%
CCc1ccc(NC(=S)Nn2cnnc2)cc1	6%[46.1 µM]	3%	nt	9%	nt	nt	1%	-17%
CCOc1c(Br)cc(CNCc2cccs2)cc1OC	19%	?	-0.2%	2%	3%	-20%	9%	-5%
OCCC1CN(Cc2ccc(F)cc2)CCN1CCc1ccccc1 (stereo not given)	nt	nt	nt	-6%	1%	nt	-1%	-18%
O=C1/C(=C/c2ccccc2)CN(C(=O)CCN2CCOCC2)C/C1=C\c1ccccc1	?	1.4µM*	nt	8.9µM*	nt	nt	nt	-5%
CN1c2ccsc2/C(=N/Nc2ccc(F)cc2)CS1(=O)=O	-1%[46.1 µM]	0%	nt	16%	nt	nt	-4%	?
NS(=O)(=O)c1ccc(NC(=O)CN2C(=O)CCC2=O)cc1	nt	nt	nt	-3%	1%	nt	1%	23%
CCCn1c(SC(C)C(=O)NCC2CCCO2)nc2sc(CC)cc2c1=O (stereo not given)	-5%	-12%	nt	-18%	11%	nt	-1%	-5%
N#CCC(=O)N1CCn2c1nc1ccccc12	3%	0%	-4.6%	-1%	-9%	-20%	-1%	9%
NC(=S)NN=CCn1cc([N+](=O)[O-])c(=O)[nH]c1=O	10%[46.1 µM]	-2%[46.1 µM]	nt	41%[activator]	nt	nt	nt	2%

Compound activity deposited in PubChem BioAssay by National Center for Advancing Translational Sciences (NCATS).
